# Compound activity from PubChem.
# BJeLR lethal = BJeLR cell viability loss; 0.17% of 300,000 active; BJeLR (HRASV12) viability, CellTiter-Glo ATP luminescence, 48 h; reference of the scale not given here; inhibition, % (concentration not given with the values);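 active means replicate mean above 50%; inconclusive means above 50% but judged a plate artefact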;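 further: 50 nL library stock added to about 25 µL; numbers are from one replicate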
# Mtb hypoxia inh = inhibitors of hypoxia-regulated fluorescent reporter in Mycobacterium tuberculosis; M. tuberculosis hypoxia-regulated fluorescent reporter, fluorescence; fluorescence inhibition, % (test concentration not listed); 0.1% of 300,000 active; AID 1159583;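 active means 35 to 45% if threefold the growth effect, above 45% if 1.5-fold the growth effect; inactive means the rest, general growth blockers included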;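 further: wells of about 50 µL received 100 nL stock; 0% = vehicle wells and 100% = reference inhibitor wells; whole bacteria with a GFP reporter of the hypoxia response; strong numbers were not always called active; many hits fall short of the cut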
# Sa ugtP lethal = compounds lethal to S. aureus RN4220 ugtP deletion mutant | 0.54% of 330,000 active | OD600 growth, 16 h; some inactives read as strong as hits | growth inhibition, % (no concentration beside the values);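 active means z-score under -3 and OD600 up to 0.15 on both plates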;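 further: plate controls were untreated wells for no effect and antibiotic for full effect; wells of about 80 µL received 100 nL stock; the first replicate is given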
# PrP 5UTR inh = suppresses PrP 5' UTR mRNA reporter expression; cell-based PrP 5' UTR mRNA reporter, plate reader; 0.35% of 340,000 active; AID 488862; inhibition, % (no concentration beside the values);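 active means every replicate at 50% or more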;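 further: 0 = median of the neutral control wells; tested in H4 reporter cells; numbers are from one replicate; inactives centre near -14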
# Bead autofluor = counter-screen for toxin protease inhibitors: compound fluorescence; compound autofluorescence counterscreen, microsphere flow cytometry; stronger effect = higher value; fluorescence intensity (test concentration not listed); 3.1% of 360,000 active; AID 624483;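 active means at least 3 SD above the mean of all compounds, about 16000 in these data; inconclusive means too few beads counted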;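 further: 100 nL of 1 mM stock went into each well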
# RN4220 kill = S. aureus RN4220 growth inhibition; AID 1259311; OD600, 16 h; inhibition, % (no concentration beside the values); 0.33% of 330,000 active;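 active means z-score of -3 or lower and OD600 up to 0.18 on both plates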;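 further: plate controls were untreated cells for no effect and reference antibiotic for full effect; stock transfer was 100 nL into about 80 µL; one replicate is shown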
# Mtb hypoxia inh growth = further read-out of Mtb hypoxia inh, marked with its call; growth inhibition, %; measured here: M. tuberculosis growth (absorbance);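 0% = vehicle and 100% = reference antibiotic; read after six days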
# The depositor's hits bear a star; ? = inconclusive; nt = not tested or not shown.
SMILES,BJeLR lethal,Mtb hypoxia inh,Mtb hypoxia inh growth,Sa ugtP lethal,PrP 5UTR inh,Bead autofluor,RN4220 kill
COc1ccc2c(c1OC)C(=O)OC2Nc1nc(-c2cc3ccccc3oc2=O)cs1 (stereo unspecified),29.8,4.6,-2.1,1.4,-111.1,2064,6.8
COC(=O)c1cccc(NS(=O)(=O)c2ccc(OC)cc2)c1C,-12.6,nt,nt,-10.1,-4.3,2869,6.4
Cc1c(C(=O)NN=Cc2ccc(-c3ccccc3[N+](=O)[O-])o2)sc(N)c1C#N,nt,6.6,3.4,-14.6,nt,nt,8.3
CCCCc1c(O)c2cccc3c2n(c1=O)CCC3,9.2,11.0,-6.4,-0.7,nt,6434,3.2
COc1ccc(Cl)cc1NC(=O)C1COc2ccccc2O1 (stereo unspecified),2.1,5.2,11.2,4.1,-19.4,4664,3.0
CCn1c(NCCO)nc2c(c1=O)C(C)(CC)Cc1ccccc1-2 (stereo unspecified),9.9,-5.9,19.4,-15.9,-26.9,5298,5.4
CCc1ccc2c(c1)C(=O)c1ccccc1C2=O,6.5,0.8,5.9,16.0,-51.8,2484,8.8
O=C(COc1ccc(Oc2ccccc2)cc1)NC1CCS(=O)(=O)C1 (stereo unspecified),nt,-0.5,8.4,1.9,-14.0,3485,1.4
CCn1c2ccccc2c2cc(NC(=O)COc3ccccc3OC)ccc21,2.7,5.3,1.5,-17.7,-11.5,2024,16.4
CN(C)CCCNC(=O)C[C@H]1C[C@H](C(=O)N2CCCCC2)[C@@]2(C)c3[nH]c4cc(-c5ccco5)ccc4c3CCN2C1=O,nt,-14.2,5.7,-3.2,1.6,3035,1.0
Cc1ccccc1-n1c(C)nc2ccccc2c1=O,0.2,5.2,2.7,8.6,-16.2,5279,1.8
Cc1cc(NC(=O)CCC(=O)N(CC2CCCO2)C(C(=O)NC2CCCC2)c2ccccc2C)no1 (stereo unspecified),-2.8,nt,nt,3.2,-18.0,4011,2.4
Cc1c(CCC(=O)NCCC(=O)O)c(=O)oc2c(C)c3oc4c(c3cc12)CCCC4,-9.1,-0.2,-9.8,-5.3,1.3,2963,7.2
COC(=O)c1ccccc1NC(=O)CSc1nc(NC(=O)c2ccccc2)c2c(C)c(C)oc2n1,-7.5,nt,nt,-5.5,-1.2,3560,-1.2
CC(C)C1NC(=O)c2cc([N+](=O)[O-])cc(I)c2OCCC(C(N)=O)NC(=O)C(CCC(=O)O)NC1=O (stereo unspecified),nt,-3.6,-6.3,-9.3,nt,nt,-2.2
CNc1ccccc1C(C)(C)c1cc(-c2cccc(OC)c2)no1,-3.0,1.6,4.5,-6.9,-1.3,5152,3.9
COc1ccc(OC)c(N/C(C)=C/C(=O)c2ccccc2)c1,1.1,0.7,12.7,6.8,-93.8,2479,-3.1
Cc1nn(-c2ccccc2)cc1C(=S)Nc1ccccc1,-3.9,-3.9,-5.5,10.2,-42.5,2055,8.7
Cc1c(C(=O)N(Cc2ccc(N(C)C)cc2)CC2CCCO2)oc2ccccc12 (stereo unspecified),9.4,-0.8,8.0,11.6,-6.8,5632,1.3
COc1ccc(NC(=S)N2CCN(S(C)(=O)=O)CC2)cc1OC,-7.9,10.0,0.5,8.3,-22.0,4395,1.5
Cc1cccc(NC(=O)NC(=O)c2ccccc2)n1,-13.8,6.7,8.0,4.6,-82.0,3861,3.7
O=C(NCC1CCCO1)c1cc(-c2ccccc2)nc2ccc(Br)cc12 (stereo unspecified),-9.0,0.0,-3.4,2.8,-12.5,4755,0.1
O=[N+]([O-])c1ccc2[nH]c3c(c2c1)CCCC3O (stereo unspecified),4.2,6.2,-0.5,-4.9,-14.0,4207,0.8
O=C(CN1c2cccc3cccc(c23)S1(=O)=O)NCCc1ccccc1,nt,1.2,-5.5,3.1,3.4,2924,3.4
C=CCN(CC=C)C(=S)NC(=O)/C=C/c1ccccc1,-10.4,7.7,7.1,11.9,-38.0,2505,4.9
CSc1ccc(S(=O)(=O)N2CCCC2)cc1,12.4,9.4,0.5,9.7,-6.5,2552,7.5
CCOC(=O)C(C)Sc1nc2c(c(-c3cccs3)c1C#N)CCC2 (stereo unspecified),-10.8,14.4,-0.1,48.5,-9.8,2306,11.8
Cc1ncc(CSc2ccc(Cl)cc2)c(CO)c1O,5.6,7.7,3.7,16.7,nt,4198,4.4
Cc1ccsc1C(=O)N1CCN(c2ccccn2)CC1,5.0,11.4,-1.0,7.2,-17.8,nt,2.5
COc1ccc(N2CCN(C(=O)CNC(=O)c3cccs3)CC2)cc1,6.3,1.1,-9.5,2.1,-23.6,6268,-2.0
Cc1cc(C)nc(N2CCC(C(=O)NC3CCCCCC3)CC2)n1,-9.1,0.4,2.8,3.6,-5.6,15934,-1.1
NC(=O)c1nsc(C(=O)N(c2ccccc2)C(C(=O)NCC2CCCO2)c2ccc3ncccc3c2)c1N (stereo unspecified),-6.6,-9.0,6.6,11.2,-27.0,4599,2.3
CCC(=O)N1c2ccc(S(=O)(=O)NCCc3ccc(C)cc3)cc2CC1C (stereo unspecified),2.6,8.8,2.4,11.0,5.3,4441,5.1
CC12CCC(=O)N1C(C(=O)Nc1nc(-c3cc(F)ccc3F)cs1)CS2 (stereo unspecified),-0.8,4.2,0.0,0.6,-32.9,5049,3.7
C/C(=N\NC(=O)c1ccco1)c1cccc2ccccc12,-7.2,nt,nt,nt,-13.7,3611,nt
CCOc1ccc(S(=O)(=O)N2CCC(C(=O)NC3CCCC3)CC2)cc1,1.3,-0.7,-0.5,5.8,-16.7,?,-3.7
Cc1[nH]nc2nc(SCC(=O)NC3CCCCC3)n(-c3ccc(Br)cc3)c(=N)c12,7.5,nt,nt,nt,-4.5,5600,nt
O=C(O)CCn1cc(C2CC(c3ccccc3)=NN2c2ccccc2)c(-c2ccccc2)n1 (stereo unspecified),-2.5,nt,nt,nt,-29.3,3791,nt
CC(=O)/C(=N/Nc1ccc(Br)cc1)N1CCCc2ccccc21,1.5,nt,nt,nt,-36.2,3497,nt
Nc1nc2ccc(C(=O)NCCOC(=O)C3CCCCC3)cc2s1,-8.3,12.6,4.4,15.3,-46.5,4472,6.0

# Reformatted as labelled records: part of the list above.
> Cc1ccsc1C(=O)N1CCN(c2ccccn2)CC1
- BJeLR lethal = 5.0
- Mtb hypoxia inh = 11.4
- Mtb hypoxia inh growth = -1.0
- Sa ugtP lethal = 7.2
- PrP 5UTR inh = -17.8
- Bead autofluor = nt
- RN4220 kill = 2.5
> COc1ccc(N2CCN(C(=O)CNC(=O)c3cccs3)CC2)cc1
- BJeLR lethal = 6.3
- Mtb hypoxia inh = 1.1
- Mtb hypoxia inh growth = -9.5
- Sa ugtP lethal = 2.1
- PrP 5UTR inh = -23.6
- Bead autofluor = 6268
- RN4220 kill = -2.0
> Cc1cc(C)nc(N2CCC(C(=O)NC3CCCCCC3)CC2)n1
- BJeLR lethal = -9.1
- Mtb hypoxia inh = 0.4
- Mtb hypoxia inh growth = 2.8
- Sa ugtP lethal = 3.6
- PrP 5UTR inh = -5.6
- Bead autofluor = 15934
- RN4220 kill = -1.1

# Following part:
SMILES,BJeLR lethal,Mtb hypoxia inh,Mtb hypoxia inh growth,Sa ugtP lethal,PrP 5UTR inh,Bead autofluor,RN4220 kill
Cc1ccc2c(CN3CCC(C)CC3)cc(=O)oc2c1C,4.3,1.0,-3.5,1.5,-14.5,4034,1.6
NCCN1CCN(S(=O)(=O)c2ccc([N+](=O)[O-])cc2)C=C1c1ccc(Cl)cc1,nt,-7.1,-12.6,-9.7,-9.7,5729,7.3
O=C(NC1CCCCC1)C(c1ccccc1F)N(Cc1ccco1)C(=O)Cn1nnc2ccccc21 (stereo unspecified),7.3,-3.7,2.8,-5.8,-12.0,3196,-14.0
CN(/N=C/c1ccc2c(c1)OCO2)c1nc(N2CCOCC2)nc(N2CCOCC2)n1,-3.9,nt,nt,nt,-12.0,3114,nt
COc1cccc(C(C(=O)NC(C)(C)C)N(C(=O)CCC(=O)Nc2cc(C)on2)C(C)(C)C)c1OC (stereo unspecified),-7.6,-1.3,1.3,-4.6,6.7,2962,4.2
CCCCCC(O)(CCCCC)C(=O)NNc1ccccc1,0.0,nt,nt,-3.7,-3.1,5548,-1.0
Cc1nc(-c2ccccc2)nn1-c1ccc([N+](=O)[O-])cc1,0.7,5.5,9.7,-8.0,nt,3583,4.7
O=C(CSc1ncn[nH]1)c1ccccc1,-1.2,-8.6,7.2,-0.7,-19.8,5639,0.2
Cc1ccc2nc(SCC(=O)Nc3ccc4c(c3)OCCO4)nc(=O)n2c1,3.4,-2.8,-8.4,5.0,-16.1,?,5.0
Cc1nc(N2CCOCC2)[nH]c(=O)c1C(O)C(Cl)(Cl)Cl (stereo unspecified),-4.2,11.7,3.1,1.5,-2.2,3324,13.0
Cn1nc(C(=O)Nc2c(-c3ccccc3)nc3sccn23)c2ccccc2c1=O,-1.3,9.2,17.7,-2.2,-16.8,4598,5.2
Cn1nnc(NC(=O)c2cccc(OCc3ccccc3)c2)n1,6.6,nt,nt,8.5,-24.5,nt,2.2
COc1ccccc1N1CCN(C(=O)C2CCN(S(=O)(=O)c3ccc(Cl)cc3)CC2)CC1,nt,-0.3,9.8,18.3,-9.3,5418,0.7
O=C1C2CC=CCC2C(=O)N1c1nc2n(n1)C(c1ccccc1)CC(c1ccccc1)N2 (stereo unspecified),0.1,nt,nt,6.6,-5.8,3001,-3.1
CCOC(=O)c1nn(-c2ccc(OCC)cc2)c(C)c1C(C)=O,-5.2,5.1,11.1,4.1,-7.8,2253,4.3
COc1ccc(NC(=O)CSc2nnc3ccc(-c4ccccn4)nn23)c(OC)c1,9.6,-3.4,-3.4,2.6,-11.0,nt,-0.2
Cc1cc(=O)oc2cc(OCC(=O)OCc3nnc(-c4ccccc4)o3)ccc12,-4.1,nt,nt,4.0,-29.2,5547,0.1
Cn1c(=O)c2ncn(CC(=O)Nc3nc(-c4ccc(Cl)cc4)cs3)c2n(C)c1=O,4.7,-9.7,-4.1,-3.8,-9.6,3494,-3.9
COCCNC(=O)C12CC3CC(CC(Cl)(C3)C1)C2,-6.5,11.5,6.0,2.5,nt,4289,0.8
CC(NC(=O)NC1CCCc2ccccc21)C(=O)O (stereo unspecified),nt,-3.0,6.7,0.3,nt,nt,2.6
O=C(NCC1CCCN1S(=O)(=O)c1cccs1)c1cccc([N+](=O)[O-])c1 (stereo unspecified),5.7,2.2,-1.0,4.3,-7.5,nt,2.5
CN(C(=O)c1cccc(NC(=O)Cc2ccc(NC(=O)C3CCN(C(=O)C4CC4)CC3)cc2)c1)C1CCCC1,nt,-0.1,4.7,1.8,-9.7,3838,0.6
O=C(O)CCn1cc(C=C2C(=O)NC(=S)NC2=O)c(-c2cccc(Br)c2)n1,1.1,1.4,17.3,1.5,-11.7,4087,6.2
CCOC(=O)C1=C(CSc2nc3c(cc2C#N)CN(C)CC3)OC(N)=C(C#N)C1c1ccccc1 (stereo unspecified),-5.2,nt,nt,7.9,-9.1,2709,0.3
CC(CC(=O)Nc1ccc2c(c1)OCCO2)=NNC(=O)c1ccc([N+](=O)[O-])cc1Cl,nt,16.5,2.6,-4.8,nt,nt,6.9
Cc1ccccc1NC(=O)COc1coc(CN2CCN(Cc3ccccc3)CC2)cc1=O,-5.0,10.7,-5.4,2.5,-21.4,4415,0.7
Cc1sc2nc(SCC(=O)N3CCOCC3)[nH]c(=O)c2c1C,16.4,4.6,7.1,10.9,-9.3,5595,8.4
Cc1cc2ncn(-c3nnnn3-c3ccccc3)c2cc1C,2.3,7.1,11.5,-3.0,-0.6,4487,2.8
CCn1cc(CNC(=O)C2CCC(=O)N(C3CCCCCC3)C2)cn1 (stereo unspecified),10.1,15.3,9.7,3.7,-2.5,5747,0.0
NC(=O)c1cc(NC(=O)CCNS(=O)(=O)c2cccc(C(F)(F)F)c2)cc(C(N)=O)c1,-1.6,3.8,10.5,2.5,-40.3,6104,1.2
C=CCn1c(SCC(=O)Nc2cccc(OC)c2)nnc1-c1cccnc1,-15.6,nt,nt,0.0,1.9,6012,-0.1
CCCSc1nc2c(=O)[nH][nH]c(=O)c2n1Cc1ccccc1,0.5,8.6,12.2,-4.6,-0.9,3025,3.4
CC(C)NS(=O)(=O)c1ccc(OCC(=O)NC(C)c2ccccc2)cc1 (stereo unspecified),-1.4,17.4,3.0,-4.2,-31.4,4866,14.4
CCOC(=O)C1CCN(C(=S)Nc2cccc(C)c2C)CC1,-7.3,-4.1,6.2,-3.0,-21.3,2794,-4.2
Cc1cc(Cl)ccc1OCCCC(=O)NCc1ccncc1,-5.5,7.7,-2.1,7.4,-16.7,7765,5.8
